Assay outcomes from PubChem.
Mtb H37Rv: Mycobacterium tuberculosis H37Rv growth inhibition, cell based, confirmatory dose response (AID 1949). 100,000 compounds, 1.6% hits. one-dose inhibition, % at 10 µg/mL; IC50 in µg/mL for titrated hits. most inactive calls were filed without a number and no value below 0 was filed;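 active = confirmed in a dose series; inconclusive = about 50% or more but not retested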;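 also: bacteria grown 7 days with compound before Alamar blue readout; 0% = untreated bacteria and 100% = reference antibiotic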
* hit, by the source's call; i = inactive; ? = inconclusive. The list is partial; count on the stated rates, not on these rows.

SMILES	Mtb H37Rv
O=C(Nc1ccc2c3c(cccc13)CC2)c1c(F)c(F)c(F)c(F)c1F	i
CC(=O)Nc1cccc(NC(=O)c2ccc(Cl)cc2)c1	i
C=CCn1c(SCc2ccc([N+](=O)[O-])cc2)nnc1-c1ccccc1O	i
COc1ccc2c(C)nc(Nc3ncc(O)[nH]3)nc2c1	i
O=C(CCC(=O)OCC(F)(F)C(F)F)Nc1ccc(Cl)cc1Cl	i
COc1ccc(Nc2oc(-c3ccccc3)nc2C#N)cc1	i
Cc1ccc(/C(C#N)=C\c2cn(C)c3ccccc23)cc1	22.7%
Nc1nonc1-c1nc2ccccc2n1Cc1ccc(Br)cc1	3.4%
Cc1ccc(S(=O)(=O)Nc2ccncc2)c(C)c1N(C)S(=O)(=O)c1ccc(F)cc1	i
Fc1ccc(OCCCn2c3ccccc3c3ccccc32)cc1	i
CCc1ccccc1N/C=C(\C#N)c1nc2ccccc2[nH]1	i
CC12CC3(C)CC(C)(C1)CC(NC(=O)N1CCN(CCO)CC1)(C2)C3	2.1%
O=C(NC12CC3CC(CC(C3)C1)C2)c1ccc(C(=O)NC23CC4CC(CC(C4)C2)C3)cc1	i
CC(C)NC(=O)COc1ccc(S(=O)(=O)N(C)Cc2ccccc2)cc1	i
O=C(CCc1ccccc1)Nc1ccc2c(c1)C(=O)OC2	i

In the list so far, these contain a Cl atom.
SMILES	Mtb H37Rv
CC(=O)Nc1cccc(NC(=O)c2ccc(Cl)cc2)c1	i
O=C(CCC(=O)OCC(F)(F)C(F)F)Nc1ccc(Cl)cc1Cl	i

Next entries follow:
SMILES	Mtb H37Rv
COC(=O)CN(c1ccc(C(C)C)cc1)S(C)(=O)=O	i
CN(C)Cc1c(N)cccc1O	i
Cc1ccc(C(=O)Nc2cc3nn(-c4ccccc4)nc3cc2Cl)c(Cl)c1	i
O=[N+]([O-])c1ccc2nonc2c1Nc1cccc(O)c1	1.2%
CS(=O)(=O)N(CC(=O)NCc1ccco1)c1ccc2c(c1)OCCO2	i
O=c1oc2cc(OCc3cccc(Br)c3)ccc2c2ccccc12	1.3%
NC(=O)c1ccc(NC(=O)/C(Cl)=C/c2ccccc2)cc1	i
Cc1ccc2oc(-c3cccc(Br)c3)nc2c1	i
C=CCc1cc(C)ccc1OCCCN1CCCC(C)C1 (stereo not drawn)	i
COc1ccc(S(=O)(=O)Nc2ccc(-c3ccccc3)cc2)cc1	i
COC(=O)N1N=C(C)CC1(O)c1ccc(Cl)cc1 (stereo not drawn)	i
COc1ccc(OC)c(N(CC(=O)NCCSCc2c(F)cccc2Cl)S(C)(=O)=O)c1	i
Cc1cc(C)c(NC(=O)C(C)Sc2ccc(Cl)cc2)c(C)c1 (stereo not drawn)	i
CCSc1nnnn1-c1c(C)cc(C)cc1C	i
O=C(CN1C(=O)C2CCCCC2C1=O)N1CCN(Cc2ccc3c(c2)OCO3)CC1 (stereo not drawn)	i
CCOC(=O)c1c(NC(=O)c2oc3ccccc3c2C)sc(C(=O)Nc2ccccc2)c1C	1.2%
COc1cc(OC)cc(C(=O)N2CCN(Cc3ccc(SC)cc3)CC2)c1	i
Cc1cc(C)c2oc(-c3ccc(Cl)c(N)c3)nc2c1	7.5%
COc1c(Cl)cc(C(=O)N2CCN(c3ccc([N+](=O)[O-])cc3)CC2)cc1Cl	i
Cc1cc(C)n(C(=O)CCN2C(=O)c3cccc4cccc(c34)C2=O)n1	0.3%
COc1cccc(OC)c1C(=O)Nc1ccc([N+](=O)[O-])cn1	i
N#Cc1ccccc1Sc1ccccc1C(=O)Nc1ccc(Br)cc1	i
Cc1ccc(Cl)cc1NC(=O)CSc1nnc(Cc2ccccc2)n1-c1ccccc1	i
O=C(CSc1ncccn1)c1ccc(-c2ccccc2)cc1	i
COc1cc(CNCc2ccccc2Cl)ccc1OCC(=O)NC(C)(C)C	i
Cc1ccc(Cl)cc1N(CC(=O)Nc1cccc(F)c1)S(=O)(=O)c1ccccc1	i
COc1cccc(S(=O)(=O)N2CCN(c3ccc(Cl)c(Cl)c3)CC2)c1	3.4%
COc1ccc(S(=O)(=O)N(CC(=O)Nc2cccc(Cl)c2Cl)c2ccc(F)cc2)cc1OC	i
Cc1cc(Br)ccc1OCC(=O)Nc1ccc(F)cc1	7.1%
CCCN(CCC)S(=O)(=O)c1ccc(NC(=O)c2ccc(C)cc2)cc1	i
CC(=O)Nc1ccc(S(=O)(=O)Nc2ccc3c(c2)OC2(CCCCC2)O3)cc1	i
COc1ccc(Cl)cc1NC(=O)CSc1nc2sccc2c(=O)[nH]1	5.9%
O=C(c1ccc2snnc2c1)N1CCCCCC1	i
CCn1c(/C(C#N)=C/c2ccc([N+](=O)[O-])cc2)nc2ccccc21	i
O=C(c1cccc(F)c1)N1CCN(c2ccc([N+](=O)[O-])c(NC3C4CC5CC(C4)CC3C5)c2)CC1 (stereo not drawn)	1.0%
CC(=O)c1ccc(N2CCN(C(=S)NCc3ccco3)CC2)cc1	i
COc1ccccc1CN1C(=O)C(=O)c2cccc(C)c21	0.9%
CCSc1nc(=S)n(CC)c(C)c1C(C)=O	i
O=C(CSc1n[nH]c(-c2ccc(Cl)cc2Cl)n1)Nc1ccccc1F	25.7%
COc1ccc(CCC(=O)Nc2ccc(Cl)cn2)cc1	48.6%
Cc1cc(C)nc(N=C2Nc3cccc4cccc(c34)N2)n1	i
O=[N+]([O-])c1cccc(C(=S)N2CCCC2)c1	i
COc1cc(N2C(=O)CCC2=O)ccc1NC(=O)Cc1ccccc1	i
Cc1ccccc1NC(=O)c1cnc(Nc2nc3ccccc3s2)nc1C	i
Cc1c(NC(=O)c2cnn3c(C(F)(F)F)cc(-c4ccco4)nc23)c(=O)n(-c2ccccc2)n1C	i
O=C(COc1ccccc1Br)Nc1ccc(Cl)cc1Cl	i
COc1cc(C(=O)NC(C)CCc2ccccc2)cc(OC)c1OC (stereo not drawn)	i
COC(=O)c1c(NC(=O)c2cccc(OC)c2)sc2c1C(C(=O)OC)CC2 (stereo not drawn)	30.4%
COc1ccc(Br)cc1CNc1cc(Cl)ccc1C	42.2%
Cc1ccccc1C(=O)N1CCN(c2ccc([N+](=O)[O-])c(NCc3cccnc3)c2)CC1	1.5%
CCOc1cc(S(=O)(=O)N2CCN=C2Cc2ccccc2)ccc1F	i
C=CCn1c(SCC(=O)Nc2sc(C)c(C)c2C(=O)OCC)nnc1-c1sc(N)nc1C	i
COc1ccc(S(=O)(=O)NCCc2ccc(OC)c(OC)c2)cc1C	i
CC(C)(C)c1cc(C(C)(C)C)c(O)c(S(N)(=O)=O)c1	15.0%
O=C(COc1ccc(Cl)cc1Cl)Nc1cccc(C(=O)Nc2nccs2)c1	i
COc1ccc(CCNC(=O)C(=O)NCCN2CCOCC2)cc1OC	i
C=CCSc1ncnc2scc(-c3ccc(Cl)cc3)c12	i
COC(=O)c1c(NC(=O)c2oc3ccccc3c2C)sc(C)c1C	i
CCc1ccccc1NC(=O)Cn1cnc2scc(-c3ccc(OC)cc3)c2c1=O	i
N/C(=N\OC(=O)Nc1ccc(Cl)cc1)c1ccc(Cl)cc1	i
Additional compounds.
SMILES	Mtb H37Rv
N#CC1=C(N)Oc2n[nH]c(-c3ccccc3)c2C1c1cccnc1 (stereo not drawn)	0.5%
O=C(c1ccc(N2CCOCC2)c([N+](=O)[O-])c1)N(Cc1ccccc1)c1ccccn1	2.4%
Cc1cc(Oc2ncnc(N)c2[N+](=O)[O-])cc(C(C)C)c1	i
Nc1c(C(=O)Nc2ccccc2)sc2nc3c(cc12)CCCCC3	i
O=C(CSc1nc2ccccc2o1)NCc1ccccc1	i
Cn1c(=O)c2ncn(CC(=O)NC3CCCCCC3)c2n(C)c1=O	i
CCOC(=O)c1sc2ncn(CC(=O)NC3CCCCC3)c(=O)c2c1C	i
CCOC(=S)N/C(=N\S(=O)(=O)c1ccccc1)c1ccccc1	i
NS(=O)(=O)c1ccc(NC(=S)N2CCC(Cc3ccccc3)CC2)cc1	i
CCc1cccc(CC)c1NC(=O)C(C)Sc1ccc(Cl)cc1 (stereo not drawn)	i
Cc1oc2c(c1C(=O)Nc1cccc3ccccc13)CCCC2	?
C=CCn1c(-c2cccc(C)c2)n[nH]c1=S	i
O=C(CCC1CCCCC1)N1c2ccccc2Sc2ccccc21	i
O=C(c1cccc(Cl)c1)N1CCN(Cc2ccccc2C(F)(F)F)CC1	1.7%
COc1ccc2c(c1)c(=O)oc1cc(OCC(N)=O)ccc12	i
Cc1ccc(S(=O)(=O)Nc2nnc(C(C)C)s2)cc1	i
CCOC(=O)N1CCN(C(=S)Nc2ccc(S(N)(=O)=O)cc2)CC1	i
CCOc1cc(C2NC(=S)NC(C)=C2C(=O)OC(C)C)ccc1O (stereo not drawn)	i
Cc1ccc(S(=O)(=O)N2CCC(C(=O)Nc3ccc(F)cc3)CC2)cc1	i
CC1(C)CC2(C)N(N)C(=O)CN2C(=S)N1 (stereo not drawn)	i
CCOc1ccc(NC(=S)NNC(=O)c2cc(Br)ccc2Cl)cc1	i
Cc1nc(SCC(=O)Nc2ccc([N+](=O)[O-])cc2)[nH]c(=O)c1C	i
CCc1ccc(NC(=S)Nc2ccccc2C)cc1	26.4%
O=C(CC12CC3CC(CC(C3)C1)C2)N1CCN(CCO)CC1	0.7%
COc1ccc(-c2cc(=O)oc3cc(OCC(=O)NC4CC4)ccc23)cc1	i
O=C(Nc1cccnc1)c1nn2cccnc2c1Cl	i
COc1cc(OC)c(NC(=O)CC(=O)c2ccccc2)cc1Cl	1.7%
CN(C)c1nc(C(=O)Nc2ccccc2)nc(N(C)C)n1	7.5%
CC(=O)c1ccc(N2CCN(C(=O)c3c(-c4ccccc4Cl)noc3C)CC2)cc1	i
COC(=O)c1c(NC(=O)c2sc3cc(C)ccc3c2Cl)sc(C(=O)N(C)C)c1C	i
COc1cc(OC)cc(C(=O)Nc2nnc(C3CCCCC3)s2)c1	21.5%
CC(C)(C)CC(=O)O/N=C(\N)c1ccccn1	i
Cn1c(SCc2ccc(F)cc2)nnc1-c1cccc(NC(=O)c2ccccc2)c1	i
O=[N+]([O-])c1ccccc1S(=O)(=O)Nc1ccccc1Sc1ccccc1	i
O=C(NC1(C(F)(F)F)NC(=O)N(Cc2cccnc2)C1=O)c1ccccc1 (stereo not drawn)	i
CCc1ccc(NC(=O)CSc2nnc(-c3ccncc3)n2-c2ccc(Cl)cc2)cc1	i
CCC(C)c1ccccc1OCCOCCN1CCC(C)CC1 (stereo not drawn)	i
O=S(=O)(Nc1cccc(Cl)c1)c1ccc(NS(=O)(=O)c2cccs2)cc1	i
Clc1ccc(-c2csc(Nc3ncccn3)n2)cc1Cl	6.1%
COc1cc([N+](=O)[O-])ccc1NC(=S)NCc1ccc(-n2cccn2)cc1	9.7%
CC(=O)Oc1ccc(-c2csc(Nc3cccc(O)c3)n2)cc1	i
COc1cc(OC)c(C(C)=O)c(OC)c1	i
COc1ccc(N2CCN(C(=S)Nc3cccc(Cl)c3C)CC2)cc1	i
COC(=O)c1sc2nc(N3CCOCC3)c3c(c2c1N)CCCC3	i
CC(C)OC(=O)C1C(C)CC2(C)CC1C(=O)O2 (stereo not drawn)	i
C=C(C)c1cccc(C(C)(C)NC(=O)N2CCN(c3ccccn3)CC2)c1	i
COc1ccc(CCNC(=S)NCc2cccs2)cc1OC	0.2%
CCCc1ccc(OCCNC(=O)c2ccco2)cc1	i
O=C(Nc1cccc(S(=O)(=O)c2cccc(NC(=O)c3ccco3)c2)c1)c1ccco1	0.5%
O=C(Nc1ccc(I)cc1Cl)c1ccc(F)cc1	i
COc1ccc2c(c1)C1(Nc3ccccc3-c3nc4ccccc4n31)C(=O)N2C (stereo not drawn)	i
O=C(Nc1nc(-c2ccccc2)ns1)c1ccc2ncsc2c1	i
Cc1ccccc1C1CC(=O)NC(SCC(=O)Nc2ccc(Cl)c(Cl)c2)=C1C#N (stereo not drawn)	i
CCC(=O)NC(C)C12CC3CC(CC(C3)C1)C2 (stereo not drawn)	i
Cc1ccc(CN(c2ccc(C(=O)Nc3ccc(F)c(Cl)c3)cc2)S(C)(=O)=O)cc1	i
CCCCc1ccc(NC(=O)CN(c2ccccc2)S(=O)(=O)c2ccc(OC)c(OC)c2)cc1	i
CCn1nnc(NC(=O)c2ccc(-c3ccccc3[N+](=O)[O-])o2)n1	i
C=CCn1c(SCC(=O)Nc2cc(Cl)ccc2Cl)nc2sc3c(c2c1=O)CCCC3	1.6%
O=C(Nc1ccc(-c2nc3ccccc3o2)cc1)c1ccc(F)cc1	i
Cc1ccc(NC(=O)C2=C(c3ccccc3)NC(=S)NC2c2ccccc2)cc1 (stereo not drawn)	i
CC(C)(C)c1ccc(C(=O)N2CCC(C(=O)NC3CCCCCC3)CC2)cc1	4.0%
O=C(C1CCN(S(=O)(=O)c2ccc(Br)cc2)CC1)N1CCOCC1	2.9%
CCOc1ccc(N2C(=O)CC(n3c(CCc4ccccc4)nc4ccccc43)C2=O)cc1 (stereo not drawn)	i

By substructure, the compounds so far containing two or more sulfur atoms
SMILES	Mtb H37Rv
Cc1ccc(S(=O)(=O)Nc2ccncc2)c(C)c1N(C)S(=O)(=O)c1ccc(F)cc1	i
COc1ccc(OC)c(N(CC(=O)NCCSCc2c(F)cccc2Cl)S(C)(=O)=O)c1	i
COc1ccc(Cl)cc1NC(=O)CSc1nc2sccc2c(=O)[nH]1	5.9%
CCSc1nc(=S)n(CC)c(C)c1C(C)=O	i
C=CCn1c(SCC(=O)Nc2sc(C)c(C)c2C(=O)OCC)nnc1-c1sc(N)nc1C	i
C=CCSc1ncnc2scc(-c3ccc(Cl)cc3)c12	i
CCOC(=S)N/C(=N\S(=O)(=O)c1ccccc1)c1ccccc1	i
NS(=O)(=O)c1ccc(NC(=S)N2CCC(Cc3ccccc3)CC2)cc1	i
Cc1ccc(S(=O)(=O)Nc2nnc(C(C)C)s2)cc1	i
CCOC(=O)N1CCN(C(=S)Nc2ccc(S(N)(=O)=O)cc2)CC1	i
COC(=O)c1c(NC(=O)c2sc3cc(C)ccc3c2Cl)sc(C(=O)N(C)C)c1C	i
O=[N+]([O-])c1ccccc1S(=O)(=O)Nc1ccccc1Sc1ccccc1	i
O=S(=O)(Nc1cccc(Cl)c1)c1ccc(NS(=O)(=O)c2cccs2)cc1	i
COc1ccc(CCNC(=S)NCc2cccs2)cc1OC	0.2%
O=C(Nc1nc(-c2ccccc2)ns1)c1ccc2ncsc2c1	i
C=CCn1c(SCC(=O)Nc2cc(Cl)ccc2Cl)nc2sc3c(c2c1=O)CCCC3	1.6%
